# Calb FLC = C. albicans growth modulation with fluconazole; C. albicans CaCi-2 (fluconazole-resistant clinical isolate) + fluconazole, Alamar Blue growth, 48 h; growth inhibition, % (test concentration not listed); 0.57% of 300,000 active; AID 1979;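 active = most replicates above 75%; inconclusive = exactly half above 75%; inactive = most below 75%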;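 also: all wells also contain fluconazole at 8 µg/ml as a sub-toxic cotreatment; 0% = median of DMSO wells and 100% = median of geldanamycin control wells; wells of about 8 µL received 7.5 nL stock; the first replicate is given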
# B2AR ag = agonists of human beta-2 adrenergic receptor inducing internalization | P07550 | Am2.2-beta2AR cells, FAP receptor internalization, flow cytometry; reference of the scale not given here | response, % (concentration not given with the values) | 0.43% of 340,000 active;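 active = response above a set limit, near 3 SD of response in nonfluorescent compounds, cut at about 42% in these data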;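 also: stock transfer was 100 nL into about 11 µL; a reference agonist was the positive control; negative values mostly stem from fluorescent compounds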
# Target sequence (P07550 whole entry, looked up): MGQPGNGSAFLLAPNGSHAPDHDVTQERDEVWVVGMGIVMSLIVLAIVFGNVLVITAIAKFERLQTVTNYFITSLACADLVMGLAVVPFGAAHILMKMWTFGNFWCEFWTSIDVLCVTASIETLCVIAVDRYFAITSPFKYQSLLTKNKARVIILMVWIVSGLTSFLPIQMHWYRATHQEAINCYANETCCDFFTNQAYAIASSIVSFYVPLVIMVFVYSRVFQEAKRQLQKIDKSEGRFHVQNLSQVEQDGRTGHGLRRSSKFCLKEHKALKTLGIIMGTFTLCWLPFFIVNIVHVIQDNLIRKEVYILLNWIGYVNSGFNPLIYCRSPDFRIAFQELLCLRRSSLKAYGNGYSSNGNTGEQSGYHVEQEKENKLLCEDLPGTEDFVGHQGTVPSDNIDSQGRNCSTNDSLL
# T cruzi repl = T. cruzi replication inhibition. inhibition, % (no concentration beside the values). 1.4% of 300,000 active. AID 1885. T. cruzi beta-gal in NIH3T3, luminescence, 90 h;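 active = mean inhibition across valid replicates above about 55%, limit read from the data; inconclusive = mean below that limit but half or more replicates reach it; inactive = mean below it, under half of replicates reach it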;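 also: signal also drops with host cell toxicity which is not excluded here; 0% = plate median of DMSO wells and 100% = zero luminescence signal; higher percent means less beta-gal luminescence so fewer parasites; stock transfer was 50 nL into about 50 µL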
# ALR inh = human ALR oxidase inhibition via reduced H2O2. P55789. purified ALR, DTT oxidation, H2O2 HRP-luminol luminescence. inhibition, % (test concentration not listed). 3.8% of 290,000 active. AID 485317;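 active = mean and each replicate at 75% or more; inconclusive = only one of the two met; inactive = neither met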;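 also: stock transfer was 7.5 nL into about 7.5 µL; 0% = neutral wells and 100% = wells with inactivated enzyme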
# Target sequence (P55789 whole entry, looked up): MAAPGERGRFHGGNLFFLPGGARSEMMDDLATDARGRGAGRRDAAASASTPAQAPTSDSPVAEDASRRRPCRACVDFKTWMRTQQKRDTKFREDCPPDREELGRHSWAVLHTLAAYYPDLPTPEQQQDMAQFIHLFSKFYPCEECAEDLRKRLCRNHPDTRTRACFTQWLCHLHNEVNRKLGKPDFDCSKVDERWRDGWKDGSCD
# rRNA inh HTS = inhibits bacterial ribosomal RNA function over humanized ribosomes; E. coli WT GFP vs humanized-ribosome RFP mutants, fluorescence, 24 h; stronger effect = lower value; DMSO median 0, no signal -100; GFP signal change (wild-type ribosome), % (test concentration not listed); 1.6% of 350,000 active;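 active = significant combined selectivity score with lowered wild-type GFP, culture density cut under 30%, mutant RFP and density less affected; inactive = any of these conditions unmet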; also: one replicate is shown; some compounds called inactive have numbers as strong as hits
# Beta apoptosis = beta cell apoptosis inhibition; INS-1E cytokine-induced death, ATP luminescence, 48 h; percent of positive-control rescue, neutral wells zero; protection from apoptosis, % (no concentration beside the values); 0.8% of 300,000 active; AID 435005;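 active = all replicates at 75% or more, or half of them and the mean; inconclusive = half reach 75% but not the mean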;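 also: 0% = cytokine-treated negative control wells and 100% = positive control rescue; higher means more ATP so stronger rescue from cytokine killing; wells of about 40 µL received 100 nL stock; the first replicate is given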
# Bfl-1 A1 inh = inhibitors of the anti-apoptotic protein A1, read as caspase activation; AID 2462; caspase activation, % (test concentration not listed); MEF A1-2A-BIM cells, Caspase-Glo 3/7 luminescence, 3 h; percent of clofoctol response, vehicle zero; 0.066% of 330,000 active;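 active = over half of replicate activation scores above 10%, or exactly half above 10 with the replicate mean above 10; inconclusive = replicate mean below 10 yet half the replicates above 10; inactive = over half of replicates below 10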;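 also: wells of about 30 µL received 50 nL stock; many hits fall short of the cut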
# LANA-H2B inh = blocks KSHV LANA binding to histone H2A/H2B; Q9QR71; cell-free LANA-H2A/H2B peptide, fluorescence polarization; AID 2629; 0.6% of 320,000 active; inhibition, % (concentration not given with the values); in the data active = inhibition mostly above about 10%, no sharp cut-off; inactive = mostly below about 6.7%;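 also: stock transfer was 7.5 nL into about 10 µL; 0% = median of vehicle wells and 100% = median of positive control wells; one replicate is shown; the record names a cut of 25% in any replicate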
# rRNA inh HTS OD600 = further read-out of rRNA inh HTS, marked with its call; OD600 change, %; measured here: OD600 growth;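 optical density of the mix in the first replicate; 0 = DMSO median and -100 = no signal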
# rRNA inh HTS RFP = second read-out of rRNA inh HTS, no call of its own (marks repeat the call); RFP signal change, %; measured here: RFP humanized mutant strains;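 first replicate; 0 = DMSO median and -100 = no signal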
# * hit, by the source's call; u = inconclusive; x = not tested or not shown; & = joins results of further samples. Only part of the results is shown; count on the stated rates, not on these rows.
SMILES,Calb FLC,B2AR ag,T cruzi repl,ALR inh,rRNA inh HTS,rRNA inh HTS OD600,rRNA inh HTS RFP,Beta apoptosis,Bfl-1 A1 inh,LANA-H2B inh
COc1cccc(CN2CCN(C(=O)CC(C)C)CC2)c1,-1,-4,2,-2,x,x,x,7,-0.6,1.2
Cc1ccc(S(=O)(=O)N2CCCC2CNC(=O)c2ccccc2)cc1 (stereo not drawn),2,-2,-11,x,10,7,2.0,x,0.2,1.5
CCOc1cc(C2C(C(=O)N3CCCCC3)=C(C)NC3=C2C(=O)CC(C)(C)C3)ccc1O (stereo not drawn),5,1,-4,6,x,x,x,-3,0.5,-5.2
O=C(O)c1ccc(Br)c(S(=O)(=O)N2CCCC2)c1,25,2,-12,0,-8,-17,-3.6,-2,-0.1,0.4
Cc1csc(=O)n1CC(=O)OCC(=O)N(CC(C)C)c1c(N)n(Cc2ccccc2)c(=O)[nH]c1=O,x,3,-8,-2,15,11,-0.5,-6,-0.7,4.4
COc1ccc(OCCCN2CCCC(C)C2)cc1 (stereo not drawn),25,-4,6,-6,x,x,x,-3,0.3,1.2
COc1cc(CN2CCN(c3cccc(C)c3C)CC2)cc(OC)c1O,3,-4,-10,-11,x,x,x,-5,0.7,-5.5
COc1ccc(C2=CC3=C(Br)C(=O)C(C)(OC(=O)c4ccco4)C(=O)C3=CO2)cc1 (stereo not drawn),-11,9,-1,4,x,x,x,1,0.7,0.6
CCN1CCN(CCNC(=O)c2ccc3c(c2)NC(=O)/C(=C\c2ccc(OC)c(OC)c2)S3)CC1,8,5,12,-23,4,7,1.5,5,0.5,5.7
O=c1c2ccccc2oc2ccc(Oc3ccccc3)cc12,-1,28,1,-3,-14,-26,-15,-1,-1.9,-1.9
CCc1ccc(NC(=O)CC2C(=O)N(c3ccc(OC)cc3)C(=O)N2CCOC)cc1 (stereo not drawn),6,-3,15,1,2,1,1.2,x,-0.1,0.4
COc1cccc(N(CC(=O)NC2CCCC2)C(=O)Cn2nnc(-c3ccc(C)o3)n2)c1,-4,8,6,2,8,10,-1.0,-4,-0.8,-1.6
O=C(NC1CCCCCCC1)c1cccs1,-19,-4,-13,2,2,-1,-0.6,2,0.0,2.5
O=C(NCC1CCCO1)/C(=C\c1ccco1)NC(=O)c1ccc(Cl)cc1 (stereo not drawn),-10,2,-12,1,-11,-14,-0.3,-11,-0.9,0.7
CN(CC(=O)Nc1c(Cl)cccc1Cl)C(=O)CC1Sc2ccccc2NC1=O (stereo not drawn),-8,5,-5,-15,9,-3,1.2,-5,-0.9,-4.3
CCOC(=O)C1(Cc2ccc(OC)cc2)CCN(C(=O)c2cc3ccccc3[nH]2)CC1,21,7,6,-17,x,x,x,59,-0.2,-2.1
CCCCOc1ccc(C(=O)NCC(=O)NC2CCC(C)CC2)cc1 (stereo not drawn),10,0,4,x,9,14,-1.2,0,u,x
CCOC(=O)c1c(-n2c(C)cc(C=O)c2C)sc2c1CCCC2,9,4,23,-3,-55,-78,-28,-4,1.1,0.1
O=C(O)c1ccccc1C(=O)OCCCc1ccncc1,1,0,-29,x,1,5,-5.1,-2,-0.8,0.3
COc1ccc(OC)c(NC(=O)COc2coc(CN3CCCc4ccccc43)cc2=O)c1,-7,2,4,38,9,9,0.2,x,0.8,-3.6

# Two records picked at random from the list so far, as already listed:
SMILES,Calb FLC,B2AR ag,T cruzi repl,ALR inh,rRNA inh HTS,rRNA inh HTS OD600,rRNA inh HTS RFP,Beta apoptosis,Bfl-1 A1 inh,LANA-H2B inh
CCOC(=O)C1(Cc2ccc(OC)cc2)CCN(C(=O)c2cc3ccccc3[nH]2)CC1,21,7,6,-17,x,x,x,59,-0.2,-2.1
CCCCOc1ccc(C(=O)NCC(=O)NC2CCC(C)CC2)cc1 (stereo not drawn),10,0,4,x,9,14,-1.2,0,u,x

# (listing goes on)
SMILES,Calb FLC,B2AR ag,T cruzi repl,ALR inh,rRNA inh HTS,rRNA inh HTS OD600,rRNA inh HTS RFP,Beta apoptosis,Bfl-1 A1 inh,LANA-H2B inh
CCCCCCC(=O)Nc1nc(C)c(-c2csc(Nc3cc(Cl)ccc3C)n2)s1,-4,1,14,-6,-1,7,-5.2,-8,-0.6,-0.1
CN(C)S(=O)(=O)c1cccc(NC(=O)COC(=O)COc2ccc(Br)cc2)c1,3,-9,-19,16,8,9,-1.6,-4,-0.3,-0.9
Cc1noc(C)c1C(=O)N1CCCC(N2CCN(c3cccc(C(F)(F)F)c3)CC2)C1 (stereo not drawn),-1,-5,21,2,0,1,2.6,10,-0.1,2.3
CCC(=O)c1ccc(OCC(=O)Nc2nn3cnnc3s2)cc1,-3,-9,-10,8,x,x,x,0,-0.2,-4.0
CCOC(=O)N1CCC(NS(=O)(=O)c2cc3c(cc2Cl)NC(=O)CO3)CC1,-25,0,45,x,x,x,x,3,-1.4,-5.2
Cc1ccc(C(=O)COC(=O)C(C)N2C(=O)C3C4C=CC(C4)C3C2=O)cc1 (stereo not drawn),4,4,0,1,x,x,x,2,1.8,-7.2
COC(=O)c1ccc(NC(=O)CN2C(=O)CCC2=O)cc1,-10,-3,-12,x,x,x,x,-3,0.5,1.3
COc1cc(/C=C/c2nc3ccccc3s2)cc(OC)c1O,11,10,-2,95*,-6,-19,8.8,-2,-1.3,-2.9
N#Cc1c2n(c(=S)n(-c3ccc(OC(F)F)cc3)c1=O)CCCCC2,1,0,-3,-20,-12,-13,2.3,0,0.5,-2.8
CCCc1nc2ccccc2c(C(=O)OCC(=O)NCc2ccco2)c1CC,6,6,-21,37,x,x,x,-4,-0.3,0.1
CCNC(=O)CCS(=O)(=O)c1ccc2ccccc2c1,8,-10,-6,99*,x,x,x,-7,1.1,2.9
O=C(CNC(=O)c1ccc(Cl)cc1)NNC(=O)c1ccc(Br)cc1,x,-1,x,-3,2,6,1.2,-2,1.3,6.7
O=C(O)CCC(=O)NN1C(=O)c2ccccc2NC1c1ccc(F)cc1 (stereo not drawn),-1,-1,1,-5,6,10,-2.2,-5,0.2,-3.3
Cn1c(SCC2CCCO2)nnc1-c1cccc([N+](=O)[O-])c1 (stereo not drawn),7,3,12,-3,11,8,-0.6,-9,-0.5,0.1
Cc1ccc(O)c(-c2cc(C(F)(F)C(F)F)[nH]n2)c1,-52,-9,-1,98*,x,x,x,2,1.9,-2.5
COc1cccc(CN2CC(C(=O)N3CCOCC3)CCC2=O)c1 (stereo not drawn),-1,-6,-1,-21,3,3,-2.2,-6,0.7,-8.5
CCc1nc(N2CCN(C(=O)c3ccco3)CC2)c2c3c(sc2n1)CCCC3,5,-6,12,-13,x,x,x,-13,-0.3,1.0
COc1ccc(S(=O)(=O)N(C)CC(=O)Nc2ccc3c(c2)OCCO3)cc1OC,4,3,3,-6,x,x,x,-3,-0.5,-5.3
COc1ccc(/C=C2/SC(=S)N(CCC(=O)N3CCN(C)CC3)C2=O)cc1,0,13,-2,-4,-3,6,-1.6,-15,0.2,4.2
Cc1ccc(S(=O)(=O)N2CCOCC2)cc1C(=O)N1CCN(S(=O)(=O)c2cccs2)CC1,2,7,4,-12,4,2,-8.2,2,-0.1,2.1

# The final two records of the section before open the next one.
SMILES,Calb FLC,B2AR ag,T cruzi repl,ALR inh,rRNA inh HTS,rRNA inh HTS OD600,rRNA inh HTS RFP,Beta apoptosis,Bfl-1 A1 inh,LANA-H2B inh
COc1ccc(/C=C2/SC(=S)N(CCC(=O)N3CCN(C)CC3)C2=O)cc1,0,13,-2,-4,-3,6,-1.6,-15,0.2,4.2
Cc1ccc(S(=O)(=O)N2CCOCC2)cc1C(=O)N1CCN(S(=O)(=O)c2cccs2)CC1,2,7,4,-12,4,2,-8.2,2,-0.1,2.1
O=C(Cc1ccccc1[N+](=O)[O-])Nc1cccc(S(=O)(=O)NC2=NCCCCC2)c1,-6,3,-12,x,-3,-10,0.8,-2,0.1,-2.1
CCOC(=O)CC1C(=O)NCCN1S(=O)(=O)c1ccc(F)cc1 (stereo not drawn),21,8,-3,-5,-4,-5,-1.9,-4,-0.4,-2.4
CC1(C)NC(=O)N(CC(O)CN(c2ccccc2)S(=O)(=O)c2ccccc2[N+](=O)[O-])C1=O (stereo not drawn),-5,-5,-1,x,-6,0,-2.1,-7,0.4,1.4
COc1ccc(C(=O)Nc2c(N)nc(SCC(=O)Nc3ccc(NC(C)=O)cc3)[nH]c2=O)cc1,x,5,-2,6,7,4,0.0,7,-1.4,3.0
COc1ccc(C(=O)Oc2c(CN3CCOCC3)cc(Cl)c3cccnc23)cc1,88*,-1,42,-19,x,x,x,54,0.4,1.7
CC(=O)c1ccc(Cc2ccccc2)cc1,u,1,-16,-1,x,x,x,-7,0.2,-3.1
C[C@H](CO)N1C[C@H](C)[C@@H](CN(C)C(=O)Nc2ccc3c(c2)OCO3)Oc2ccc(NC(=O)CCN3CCOCC3)cc2C1=O,x,-1,x,-11,0&7,7&6,-0.6&3.6,-4,-0.1,-2.0
Cc1ccc(C(=O)N2CCn3c(C)ccc3C2C)cc1 (stereo not drawn),-1,10,3,-1,22,6,7.8,-2,0.1,-1.4
CC1CCCC(NC(=O)c2ccncc2)C1C (stereo not drawn),0,-4,15,-23,7,4,-0.6,4,-0.7,1.2
O=C(NNS(=O)(=O)c1ccccc1[N+](=O)[O-])c1cccc([N+](=O)[O-])c1,x,-2,-29,-8,17,8,-9.5,-4,-0.4,-6.9

# Some of these compounds in order of their number in rRNA inh HTS, falling.
SMILES	rRNA inh HTS
Cc1ccc(C(=O)N2CCn3c(C)ccc3C2C)cc1 (stereo not drawn)	22
O=C(NNS(=O)(=O)c1ccccc1[N+](=O)[O-])c1cccc([N+](=O)[O-])c1	17
CC1CCCC(NC(=O)c2ccncc2)C1C (stereo not drawn)	7
CC1(C)NC(=O)N(CC(O)CN(c2ccccc2)S(=O)(=O)c2ccccc2[N+](=O)[O-])C1=O (stereo not drawn)	-6

# (continued)
SMILES,Calb FLC,B2AR ag,T cruzi repl,ALR inh,rRNA inh HTS,rRNA inh HTS OD600,rRNA inh HTS RFP,Beta apoptosis,Bfl-1 A1 inh,LANA-H2B inh
O=[N+]([O-])c1cc(S(=O)(=O)N2CCOCC2)ccc1OCc1cccc(Cl)c1,x,-1,x,-2,3,15,1.3,-1,-0.6,-0.2
CCO[C@@H]1OC(C(=O)N2CCN(C)CC2)=C[C@H](C(C)(C)C)[C@H]1CCCO,-3,x,-26,-9,x,x,x,-11,0.7,4.4
CN1CCc2c(sc3c2c(=O)n(-c2ccc(Cl)cc2)c2nncn32)C1,7,4,30,-18,x,x,x,2,0.6,-2.4
CC(C)C[C@H]1CN=C(Nc2ccccc2)N1CC1CCCC1,-8,-7,11,0,-3,-16,-3.0,13,1.1,-9.2
CCOC(=O)NC(C(F)(F)F)(C(F)(F)F)P(=O)(c1ccccc1)c1ccccc1,2,-2,-17,-6,x,x,x,-1,-0.9,6.9
COc1ccc2nc(NC(=O)CSc3nc4cccnc4n3C)sc2c1,3,-4,-15,-8,x,x,x,x,-2.1,-125

# From PubChem
